Assay outcomes as filed in PubChem BioAssay.
VDR inh: inhibitors of human vitamin D receptor | P11473 | VDR-SRC2-3 peptide fluorescence polarization, 2 h | Potency, µM, without a hit: max response, negative = inhibition, actives largely listed as inhibitors | actives 0.93% (n = 400,000) | AID 504847; active = well fitted inhibition curve with a large enough effect; inconclusive = small, poorly fitted or top-dose-only effect, or another doubt; inactive = no such curve, though single readings can be large or run the other way; also: series mostly up to about 120 µM
Target sequence (P11473 whole entry, looked up): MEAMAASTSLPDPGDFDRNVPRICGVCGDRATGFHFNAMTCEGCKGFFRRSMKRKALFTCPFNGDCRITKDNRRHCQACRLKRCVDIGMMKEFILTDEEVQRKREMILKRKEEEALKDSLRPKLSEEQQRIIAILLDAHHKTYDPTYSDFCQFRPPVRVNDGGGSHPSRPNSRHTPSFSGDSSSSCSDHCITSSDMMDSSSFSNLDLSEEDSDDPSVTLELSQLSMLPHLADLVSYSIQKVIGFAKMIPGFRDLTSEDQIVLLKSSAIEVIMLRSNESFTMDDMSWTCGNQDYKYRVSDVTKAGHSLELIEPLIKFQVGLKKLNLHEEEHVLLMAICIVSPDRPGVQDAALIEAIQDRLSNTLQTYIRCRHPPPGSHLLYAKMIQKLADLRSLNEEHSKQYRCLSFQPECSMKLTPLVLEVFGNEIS
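VDR–SRC2-3 interaction, FP format. Cmpds 23 nl via pintool, brief spin, 2 h ambient incubation.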
Starred values were filed as active, the others as inactive; u = inconclusive; & = joins results of further samples. % is scaled to controls: 0 for no effect and ±100 for the full control effect; potency is read from the fitted curve at half-maximal effect. This is a subset; count on the stated rates, not on these rows.

VDR inh	mol
12%	CCN(c1ccccc1)S(=O)(=O)c1cnc[nH]1
-8%	CC(C)C[C@@H](CNCC(=O)[C@H](C)NC(=O)c1[nH]cnc1C(=O)N[C@@H](C)CN)NC(=O)c1nc[nH]c1C(=O)N[C@@H](C)C(=O)O
8%	Cc1cc(NC(=O)c2cccc(S(=O)(=O)N3CCOCC3)c2)no1
10%	O=C1Cc2cc(S(=O)(=O)NCc3ccccc3Cl)cc3c2N1CCC3
8%	Cc1cc(=O)n2nc(N3CCC(C(=O)Nc4ccc(Br)c(C)c4)CC3)sc2n1
-6%	Cc1cc(C)n2nc(C(=O)OCC(=O)N(C)C3CCCCC3)nc2n1
-9%	COC(=O)c1ccc(OCC(=O)N2CCCc3ccccc32)cc1
-16%	Cc1nc(NC(=O)CSc2nnc(N)s2)c(Cl)cc1Cl
4%	Cc1ccc(C)c2c1cc(C)c1nnc(SCC(=O)Nc3nc4c(s3)CCCC4)n12
16%	CC(C)N1C(=O)N(c2ccccc2)C(C)(O)CC1(C)C (configuration not stated)
-2%	CC1(C(=O)O)CCC(C(=O)N2CCOCC2)C1(C)C (configuration not stated)
8%	O=C(Nc1ccc(OC(F)(F)F)cc1)C1CCCCN1S(=O)(=O)c1ccccc1 (configuration not stated)
7%	O=C(c1coc(=O)c(Br)c1)N1CCCc2ccccc21
-15%	Cc1cccc(NC(=O)c2onc3c2CCCC3)c1C
14%	CCOCCCn1c(SCC(=O)Nc2oc(C)c3c(C)n[nH]c(=O)c23)nc2ccccc2c1=O
-4%	Cc1n[nH]c(=S)n1/N=C/c1ccccc1OCc1ccc(Cl)cc1
-18%	CCCCc1cc(=O)oc2c(C)c(OCC(=O)N3CCC(C(N)=O)CC3)ccc12
2%	O=C1C=C(N2CCCCCC2)C2(CCCCC2)O1
9%	Cc1ccc(S(=O)(=O)NCC2CCC(C(=O)N3CCN(C)CC3)CC2)cc1 (configuration not stated)
4%	CS(=O)(=O)N(CC(=O)Nc1ccc(F)cc1F)c1cccc([N+](=O)[O-])c1
6%	CC(C)N(Cc1nc(-c2ccccc2)no1)C(=O)c1ccc2c(c1)OCO2
-10%	O=c1[nH]cnc2c1ncn2-c1ccc(Cl)cc1
-9%	Cc1nn(C(C)C(=O)N2CCc3ccccc32)c(C)c1[N+](=O)[O-] (configuration not stated)
-5%	C=CCn1c(Oc2ccccc2F)nc2c1c(=O)n(C)c(=O)n2C
-1%	O=C(O)Cc1ccc2c(c1)N(S(=O)(=O)c1cccc(C(F)(F)F)c1)CC(C(=O)O)O2 (configuration not stated)

The closing 4 records of the part before come first, to join the parts:
VDR inh	mol
-10%	O=c1[nH]cnc2c1ncn2-c1ccc(Cl)cc1
-9%	Cc1nn(C(C)C(=O)N2CCc3ccccc32)c(C)c1[N+](=O)[O-] (configuration not stated)
-5%	C=CCn1c(Oc2ccccc2F)nc2c1c(=O)n(C)c(=O)n2C
-1%	O=C(O)Cc1ccc2c(c1)N(S(=O)(=O)c1cccc(C(F)(F)F)c1)CC(C(=O)O)O2 (configuration not stated)
-4%	CSc1ccccc1NC(=O)CN(c1ccccc1Br)S(C)(=O)=O
-15%	COc1ccc(NC(=S)N/N=C/c2cccn2Cc2ccc(F)cc2Cl)cc1
-1%	CC(=O)c1cccc(NC(=O)C(C)OC(=O)c2cccc(S(=O)(=O)N3CCN(C)CC3)c2)c1 (configuration not stated)
-5%	CCC1Oc2ccc(C)cc2N(CC(=O)N(Cc2ccncc2)Cc2ccco2)C1=O (configuration not stated)
-5%	NNC(=O)C(Cc1ccc(O)cc1)N1Cc2ccccc2C1=O (configuration not stated)
12%	COc1ccc(-c2cc(C(=O)Nc3c(C)n(C)n(-c4ccccc4)c3=O)c3ccccc3n2)cc1
8%	Cc1ccc(-n2nc3c(=O)n(CC(=O)NCCC(C)C)nc(C)c3c2C)cc1
3%	COc1cccc2c1cc1c(=O)n(CC(=O)NC3CC3)nc(C)n12
4%	COc1ccc(-n2cc(-c3ccccc3)c3c(NCCc4ccc(OC)c(OC)c4)ncnc32)cc1
-15%	Cc1noc(NS(=O)(=O)c2ccc(NC(=O)C(CC(C)C)N3C(=O)c4ccccc4C3=O)cc2)c1C (configuration not stated)
-5%	CC[C@]12c3[nH]c4cc(-c5ccco5)ccc4c3CCN1C(=O)[C@@H](CC(=O)NCCCn1ccnc1)C[C@@H]2C(=O)N1CCN(C(=O)c2ccco2)CC1
-5%	O=C(OCc1cccs1)c1ccccc1NS(=O)(=O)c1ccc2c(c1)OCCO2
-16%	O=C(NCCn1cc(SCc2ccccc2)c2ccccc21)c1ccccc1F
24%	CCc1c(C)nc2cc(-c3ccc(OC)c(OC)c3)nn2c1N1CCC(C)CC1
-6%	Cc1ccc(S(=O)(=O)N2CCC(C(=O)Nc3ccc(S(=O)(=O)N4CCCC4)cc3)CC2)cc1
-3%	CC(C)CN(C)Cc1c(C(=O)N2CCc3ccccc3C2)nc2ccc(Cl)cn12
12%	COC(=O)c1ccc(NC(=O)C23CCC(C)(C(=O)O2)C3(C)C)cc1 (configuration not stated)
1%	Cc1nc(C(F)(F)F)c(C(=O)NC(=O)Nc2ccc(OC(F)(F)F)cc2)s1
-7%	Cc1cnn2c(C3CC3)ccnc12
5%	COc1ccc(N=c2oc3cc(O)ccc3cc2C(=O)NCC2CCCO2)c(OC)c1 (configuration not stated)
u	CNc1nc(C)c([N+](=O)[O-])c(Nc2ccc(OC)cc2)n1
-6%	O=C(NCCCn1ccnc1)/C(=C\c1cccnc1)NC(=O)c1ccccc1Br
11%	C=CCNC(=S)Nc1ccc(OC)c(S(=O)(=O)N2CCOCC2)c1
2%	COc1ccc(OC)c(-c2nc(C)sc2CC(=O)O)c1
13%	O=C(CSc1nncn1-c1cccnc1)N(c1ccccc1)c1ccccc1
-14%	CCOc1ccc(NCc2cccn2-c2nnc(N3CCC(C(=O)NCCc4ccc(OC)c(OC)c4)CC3)s2)cc1
-4%	O=C1CN(C(=O)c2ccc(Cl)nc2)c2ccccc2N1
-22%	COc1ccc(/C=C2/SC(=O)N(CCNC(=O)CC(NC(C)=O)c3ccccc3)C2=O)cc1 (configuration not stated)
5%	O=C(Nc1ccccc1)c1ccccc1OS(=O)(=O)c1ccccc1
14%	O=C(CCN1C(=O)/C(=C/c2ccc(Cl)cc2)SC1=S)Nc1cccnc1
-19%	CC(C)CC(=O)N1CC=CC[C@@H](c2ccc(Cl)cc2)N(Cc2ccc(Cl)cc2)C(=O)[C@@H]1Cc1ccccc1
u	CN(O)/C=N/C(=S)Nc1ccc(Cl)cc1Cl
-17%	COc1cccc([C@@H]2CC=C(C(=O)O)[C@H](c3ccc(Cl)cc3)N2S(=O)(=O)c2ccc(C)cc2)c1
-14%	Cc1cc(C)n(-c2nnc(C)n2/N=C/c2ccccc2O)n1
-16%	Cc1nn(C)c(-c2n[nH]c(=S)n2-c2ccccc2)c1Cl
4%	CC(C)CCn1c(=O)c2c(nc3n2CCCN3Cc2ccccc2)n(C)c1=O
-6%	Cc1cc2cc(C)c3nnc(SCC(=O)Nc4ccc(S(=O)(=O)N5CCCCC5C)cc4)n3c2cc1C (configuration not stated)
-5%	CCCCn1c(-c2csc(CCC)c2)n[nH]c1=S
0%	COc1cc(NS(=O)(=O)c2ccc(NC(=O)c3ccc([N+](=O)[O-])cc3)cc2)ncn1
3%	COc1ccc(OC2CCN(S(=O)(=O)c3ccccc3)CC2)cc1
1%	CC(C)CN(C(=O)c1ccc2c(c1)OCCO2)c1c(N)n(Cc2ccccc2)c(=O)[nH]c1=O
-8%	CCC(O)C1CCN(Cc2cn(-c3ccc(OC)cc3)nc2-c2cccc(F)c2)CC1 (configuration not stated)
2%	O=S(=O)(c1cccc(-c2csc(-c3cccnc3)n2)c1)N1CCOCC1
u	Cc1cc(CC(=O)O)c(C)n1-c1ccc(Cl)cc1
11%	COc1ccc(NC(=O)CN(C)C(=O)c2cccc(S(=O)(=O)N3CCCc4ccccc43)c2)cc1
6%	CCOc1ccc(NC(=O)CSc2nc3[nH]ncc3c(=O)[nH]2)cc1
u	COc1cc(S(=O)(=O)N2CCN(Cc3cccs3)CC2)ccc1NC(C)=O
-9%	CCOC(=O)c1snc(-c2ccc(F)cc2)c1N
-7%	CCCOc1ccccc1N/C(=N/c1nc(C)cc(C)n1)NC(=O)Nc1ccc(Cl)cc1
-1%	FC(F)(F)c1nc2ccccc2n1CCNc1nc(CN2CCCCC2)cs1

3 compounds already listed, arranged by their value in VDR inh, lowest first.
SMILES	VDR inh
COc1cccc([C@@H]2CC=C(C(=O)O)[C@H](c3ccc(Cl)cc3)N2S(=O)(=O)c2ccc(C)cc2)c1	-17%
CCOc1ccc(NCc2cccn2-c2nnc(N3CCC(C(=O)NCCc4ccc(OC)c(OC)c4)CC3)s2)cc1	-14%
CC(C)CCn1c(=O)c2c(nc3n2CCCN3Cc2ccccc2)n(C)c1=O	4%

(listing goes on)
VDR inh	mol
-4%	CN1CCN(S(=O)(=O)c2cccc(C(=O)NCc3ccccc3Cl)c2)CC1
12%	O=C1CCCN1CCc1cccc2ccccc12
-6%	COc1ccc(CCNC(C(=O)Nc2cc(C)cc(C)c2)c2ccccc2)cc1 (configuration not stated)
-13%	NS(=O)(=O)c1ccc(NC(=S)NC(=O)/C=C/c2cccs2)cc1
-11%	COc1ccccc1NC(=O)C(C)Sc1nnc2ccccn12 (configuration not stated)
3%	O=C(Cc1ccccc1)c1ccccn1
-17%	O=C(CCl)Nc1cc2[nH]c(=O)[nH]c2cc1Br
-9%	CS(=O)(=O)Cc1ccc(C(=O)NNC(=O)c2cc(-c3ccccc3)n[nH]2)cc1
4%	COc1cccc(CC(NC(C)=O)C(=O)NC2CCN(c3c4c(nc5ncnn35)CCC4)CC2)c1 (configuration not stated)
-28%	CC(Sc1nnc(COc2ccc(Cl)cc2)n1Cc1ccco1)C(=O)N1CCNC1=O (configuration not stated)
-8%	COc1nccnc1NS(=O)(=O)c1ccc(NC(=O)c2ccccc2Br)cc1
u	S=c1nccc(-c2ccc3c(c2)CCO3)[nH]1
u	COc1ccc(C2=CC3=C(Br)C(=O)C(C)(O)C(=O)C3=CO2)cc1 (configuration not stated)
-11%	COc1ccc2cc3cc(C(=O)N4CCN(c5cccc(C(F)(F)F)c5)CC4)sc3nc2c1
13%	CCOc1cccc(C(=O)Nc2ccc(-c3nc4cc(C)cc(C)c4o3)cc2)c1
-3%	O=C(NC1CCCC1)c1ccc2c(=O)n(Cc3ccccc3)c(SCc3ccccc3F)nc2c1
5%	Cc1cc(-c2cccnc2)c(C#N)c(SCC#N)n1
-8%	CCOC(=O)c1ccc(NC(=O)Cn2cc3c(n2)CCC(C)C3)cc1 (configuration not stated)
-7%	COCc1cc(C)nc(OCC(=O)N/N=C/c2ccccc2)c1C#N
9%	O=C(Nc1nc2ccccc2n1Cc1ccc(Cl)cc1)c1ccco1
35µM*	Cc1noc(C)c1-c1nc(NCc2ccccc2)c2ccccc2n1
4%	O=C(CSc1nc2ccccc2c(=O)n1-c1ccccc1F)NC1CCS(=O)(=O)C1 (configuration not stated)
11%	Cc1ccc(NC(=O)c2ccco2)cc1C
16%	CCN(CC)CCCNc1nc(C)cc(COC)c1C#N
4%	OC(CN1CCN(c2ccc(F)cc2)CC1)c1ccc(Cl)cc1 (configuration not stated)

3 of these compounds, set out differently:
compound,VDR inh
CCOc1ccc(NC(=O)CSc2nc3[nH]ncc3c(=O)[nH]2)cc1,6%
CCN(CC)CCCNc1nc(C)cc(COC)c1C#N,16%
CCCOc1ccccc1N/C(=N/c1nc(C)cc(C)n1)NC(=O)Nc1ccc(Cl)cc1,-7%

(more compounds)
VDR inh	mol
-5%	CCOC(=O)N1CCN(C(=O)C2CCN(S(=O)(=O)c3cc(C)ccc3OC)CC2)CC1
-4%	CCN(CC)S(=O)(=O)c1ccc2[nH]c(=O)cc(C(=O)NCC3CCCO3)c2c1 (configuration not stated)
-1%	COc1ccc(-c2nnc(SCc3nc4ccccc4s3)n2C(C)C)cc1
-1%	COc1ccc(CC(=O)NCCN2CCOCC2)cc1
-21%	COc1ccc(-c2cccc(C3C4C=CCCC4(C)C(=O)N3Cc3ccccc3)c2)cc1 (configuration not stated)
-1%	CC(C)CC(=O)Nc1ccc(C(=O)CN2C(=O)NC3(CCOc4ccccc43)C2=O)cc1 (configuration not stated)
-9%	O=C(CN1CCN(Cc2ccccc2)CC1)N1CCCCCC1
6%	COc1ccc2nc(SCC(=O)NC3CC3)c(C#N)cc2c1
3%&-5%	CCCCCCCC/C=C\CCCCCCCCOC[C@H](COP(=O)([O-])OCC[N+](C)(C)C)OC(C)=O
-13%	Cc1cc(C(C)(C)C)c(OC(=O)[C@@H]2OC(c3ccccc3)=C[C@H]2c2ccccc2)c(C(C)(C)C)c1
-2%	CCOCCCNC(=O)CCc1nnc2n(CCC(C)C)c(=O)c3ccccc3n12
-21%	CCCCCCCCCCC[N+](C)(C)CC/C=C1/c2ccccc2Sc2ccc(Cl)cc21
-2%	COc1ccccc1CNc1nc(-c2ccco2)nn1S(C)(=O)=O
9%	O=C(NCc1ccc(Cl)c(Cl)c1)c1cccnc1
u	Clc1ccccc1CN1CCN(CCCc2ccccc2)CC1
9%	CC(=O)c1c(C)[nH]c2ccccc2c1=O
0%	CSc1ccccc1NC(=O)COc1ccc(Cl)cc1C
-1%	COc1cc2c(cc1OC)C(c1cccc(Cl)c1Cl)CC(=O)N2 (configuration not stated)
u	Cn1c(CN2CCOCC2)nc2cc(NC(=O)COc3ccccc3)ccc21

A draw from above in order of heavy-atom count, low to high:
VDR inh	mol
9%	O=C(NCc1ccc(Cl)c(Cl)c1)c1cccnc1
-1%	COc1ccc(CC(=O)NCCN2CCOCC2)cc1
u	Clc1ccccc1CN1CCN(CCCc2ccccc2)CC1
-5%	CCOC(=O)N1CCN(C(=O)C2CCN(S(=O)(=O)c3cc(C)ccc3OC)CC2)CC1
-1%	CC(C)CC(=O)Nc1ccc(C(=O)CN2C(=O)NC3(CCOc4ccccc43)C2=O)cc1 (configuration not stated)
